KCNQ2 block: KCNQ2 potassium channel inhibitors, primary screen, cell-based, CHO-K1, FluxOR thallium flux, B-score (AID 2156); Potassium voltage-gated channel subfamily KQT member 2 (Rattus norvegicus), O88943; 20 min; stronger effect = lower value; only compounds with negative scores are shown here; some inactives read as strong as hits; B-score at 10 µM; actives 1.1% (n = 310,000);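 active = fluorescence ratio B-score at most minus 3 library SDs, with starting brightness B-score within 2 library SDs, cut at about -5.5 in these data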
Target sequence (O88943 whole entry, looked up): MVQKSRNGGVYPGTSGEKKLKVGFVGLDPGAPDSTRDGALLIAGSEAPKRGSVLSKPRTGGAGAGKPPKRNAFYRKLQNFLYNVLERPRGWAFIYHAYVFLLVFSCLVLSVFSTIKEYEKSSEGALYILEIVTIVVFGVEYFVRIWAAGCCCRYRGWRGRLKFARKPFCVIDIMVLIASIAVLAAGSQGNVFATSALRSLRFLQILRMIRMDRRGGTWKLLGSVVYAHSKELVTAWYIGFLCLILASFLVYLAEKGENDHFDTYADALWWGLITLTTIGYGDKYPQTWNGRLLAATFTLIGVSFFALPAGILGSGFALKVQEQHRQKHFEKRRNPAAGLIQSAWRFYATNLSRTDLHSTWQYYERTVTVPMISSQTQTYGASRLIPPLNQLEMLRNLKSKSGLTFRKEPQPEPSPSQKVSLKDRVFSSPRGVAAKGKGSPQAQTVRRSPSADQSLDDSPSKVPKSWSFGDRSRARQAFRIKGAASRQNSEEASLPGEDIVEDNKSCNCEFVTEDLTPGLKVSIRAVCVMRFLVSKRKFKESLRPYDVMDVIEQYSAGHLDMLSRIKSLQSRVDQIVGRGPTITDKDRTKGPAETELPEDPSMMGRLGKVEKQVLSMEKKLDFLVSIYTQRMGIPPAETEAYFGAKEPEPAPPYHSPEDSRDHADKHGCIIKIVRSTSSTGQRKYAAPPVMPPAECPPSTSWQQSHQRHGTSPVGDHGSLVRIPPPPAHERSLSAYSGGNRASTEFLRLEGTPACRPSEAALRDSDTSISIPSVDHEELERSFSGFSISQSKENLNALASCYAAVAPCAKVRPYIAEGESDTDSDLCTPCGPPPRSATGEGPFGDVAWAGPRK
KCNQ2 block baseline: further read-out of KCNQ2 block, marked with its call; B-score; measured here: initial fluorescence intensity artifact check;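 brightness before thallium and not channel activity; 0 = typical well and far values either way flag optical interference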
Numbers without * were called inactive; i = inactive. An excerpt, so the mix of outcomes need not match the whole.

SMILES	KCNQ2 block	KCNQ2 block baseline
COc1cccc2[nH]c3c(N4CCc5ccccc5C4)ncnc3c12	i	-0.38
COc1ccc(C2(C(=O)Nc3ccc(C(=O)N4CCOCC4)cc3)CCOCC2)cc1	i	-0.24
Cc1cc(C)nc(NC(=O)Nc2ccc(F)cc2F)n1	i	-1.07
COc1ccc(/C=C(\C#N)C(=O)OC2CCOC2=O)cc1 (stereo not drawn)	i	0.09
O=[N+]([O-])c1cc(Cl)ccc1-c1nc(-c2ccncc2)no1	i	0.45
O=[N+]([O-])c1ccc(NNC(=S)Nc2ccc(F)cc2)cc1	i	1.51
O=C(O)C1CSC2(c3ccc4c(c3)OCCO4)CCC(=O)N12 (stereo not drawn)	i	-1.52
Cc1ccc2c(c1)sc(=NC(=O)C1CC1)n2C	i	-0.9
CSc1ccc(CNC(=O)C2CCC(=O)N(CCc3cccc(F)c3)C2)cc1 (stereo not drawn)	i	-1
Cc1nc2cc(-c3ccc(Cl)cc3)nn2c(C)c1CCC(=O)NCc1ccco1	i	-1.15
O=C(CCNC(=O)c1ccccc1)Nc1cccnc1	i	-0.02
CC1(C)CC(=O)C=C(Nc2ccc(S(N)(=O)=O)cc2)C1	i	-3.43
CCOC(=O)C1CCCN(C(=O)c2cc(-c3ccc(F)cc3)nc3ccccc23)C1 (stereo not drawn)	i	0.14
CCCOc1ccc(N2C(=O)CC(SC(=NC)Nc3ccc(F)cc3)C2=O)cc1 (stereo not drawn)	i	-1.48
Cc1occc1C(=O)N/N=C/c1sc(N2CCOCC2)nc1-c1ccccc1	i	-1.15
Cc1ccccc1OCC(=O)NNC(=O)Nc1ccccc1	i	0.14
Cc1ccc2cc(CN(CC(C)C)S(=O)(=O)c3cccc4nonc34)c(=O)[nH]c2c1	i	0.41
COc1ccc(-c2ocnc2C(=O)Nc2ccc3c(c2)CCC3)cc1	i	1.24
Cc1ccc(NC(=O)COC(=O)c2ccccc2Cl)cc1S(=O)(=O)N(C)C	i	-0.08
O=C(N/N=C/c1cccc([N+](=O)[O-])c1)c1ccc2nc[nH]c2c1	i	-1.71
Cc1cccc(N2CC(C)Cn3c2nc2c3c(=O)n(CC(=O)OCc3ccccc3)c(=O)n2C)c1 (stereo not drawn)	i	-0.47
Cc1cccc(N(Cc2ccccc2)C(=O)CCl)c1	i	1.12
CCCCCOc1ccc(/C(C)=N/NC2=NCCN2)cc1	i	-1.91
CCS(=O)(=O)c1ccc2oc(SCC(=O)NCCC3=CCCCC3)nc2c1	i	1.34
Cc1cc(S(=O)(=O)N2CCOCC2)ccc1NC(=O)c1ccc(F)cc1	i	-1.76
O=C(O)CCc1ccc(-c2ccc(F)cc2)n1CC1CCCO1 (stereo not drawn)	i	-1.04
O=S(=O)(c1ccc(OC(F)(F)F)cc1)N1CCCC(N2CCOCC2)C1 (stereo not drawn)	i	0.8
Cc1cc(C)nc(SCC(=O)NNC(=O)c2cccs2)n1	i	-1.85
CCN(CC)S(=O)(=O)c1cccc(C(=O)N/N=C2\CCCC(=O)C2)c1	i	-0.18
O=C(O)Cn1ncc2ccccc2c1=O	i	-1.17

Molecules shown so far with an aryl thioether with sulfur outside any ring, in the order listed:
SMILES	KCNQ2 block	KCNQ2 block baseline
CSc1ccc(CNC(=O)C2CCC(=O)N(CCc3cccc(F)c3)C2)cc1 (stereo not drawn)	i	-1
CCS(=O)(=O)c1ccc2oc(SCC(=O)NCCC3=CCCCC3)nc2c1	i	1.34
Cc1cc(C)nc(SCC(=O)NNC(=O)c2cccs2)n1	i	-1.85

More entries.
SMILES	KCNQ2 block	KCNQ2 block baseline
O=C(N/N=C/c1ccc2c(c1)OCO2)c1cc(-c2ccc(F)cc2)nc2ccccc12	i	-0.06
COc1ccc(C(=O)C2CCN(CC(=O)Nc3ccc(OC)cc3OC)CC2)cc1	i	0.1
CCCC(=O)Nc1ccc(Cl)c(NC(=O)c2cccc(OC)c2)c1	i	-0.57
COc1ccc(C(C)NC(=O)C2CCCC2)cc1OC (stereo not drawn)	i	-0.11
NC(=O)CC[C@H](NC(=O)[C@H](Cc1ccccc1)n1c(=O)[nH]c2ccccc2c1=O)C(=O)N1CCC[C@H]1C(=O)O	i	-1.36
O=C(Cc1ccccc1)Nc1ccc(NC(=O)c2ccccc2)c(Cl)c1	i	-0.77
CC(OC(=O)c1cccc(S(=O)(=O)N2CCCCC2)c1)C(=O)NC1CCCCC1C (stereo not drawn)	i	-0.56
CC1=C(C(=O)Nc2ccccc2)C(c2ccccc2)N2C(=O)CSC2=N1 (stereo not drawn)	i	-1.23
COc1cc(C=C2C(=O)c3ccccc3C2=O)ccc1O	i	1
COC(=O)C1=C(Nc2cc(Cl)cc(Cl)c2)CSC1	i	-0.16
COc1ccc(OC)c(NC(=O)CSc2nnc(-c3cccnc3)s2)c1	i	-1.69
CCOC(=O)c1c(-c2ccccc2)csc1NC(=O)COc1ccc2c(C)cc(=O)oc2c1	i	-0.68
CC1CCCCC1NC(=O)C1CCN(S(=O)(=O)N2CCC3(CC2)OCCO3)CC1 (stereo not drawn)	i	-1.64
O=c1c(Br)c(N2CCOCC2)cnn1-c1ccccc1	i	-0.37
Oc1ccc(-c2cn3c(n2)SCC3)cc1O	i	1.18
Cc1ccc2nc(-c3cccc(-c4cccc(Cl)c4)c3)c(NCc3ccccc3)n2c1	i	-0.47
C/C(Cl)=C\Cn1c(NCCCn2ccnc2)nc2c1c(=O)n(C)c(=O)n2C	i	3.44
CC(C)CNc1nc2c(c(=O)n(C)c(=O)n2C)n1Cc1cccc(Br)c1	i	-0.83
COc1ccc(-c2cc(C(=O)NCc3cccs3)no2)cc1	i	0.47
CN(C)c1nc(OCC(=O)NC(C)(C)C)nc(N(C)C)n1	i	-1.56

Some of these compounds in order of molar mass, smallest number first:
SMILES	KCNQ2 block	KCNQ2 block baseline
Cc1ccc2c(c1)sc(=NC(=O)C1CC1)n2C	i	-0.9
COc1ccc(/C=C(\C#N)C(=O)OC2CCOC2=O)cc1 (stereo not drawn)	i	0.09
O=c1c(Br)c(N2CCOCC2)cnn1-c1ccccc1	i	-0.37
NC(=O)CC[C@H](NC(=O)[C@H](Cc1ccccc1)n1c(=O)[nH]c2ccccc2c1=O)C(=O)N1CCC[C@H]1C(=O)O	i	-1.36

The results go on:
SMILES	KCNQ2 block	KCNQ2 block baseline
CCCCNC(=O)C1c2cc(OC)c(OC)cc2C(=O)N(C)C1c1ccc(OC)cc1 (stereo not drawn)	i	-1.69
O=C(CSc1nnnn1-c1ccc(F)cc1)NCc1cccs1	i	-0.11
COc1ccc(COC(=O)C2=C(C)NC(=O)NC2c2ccc(OC)c(OC)c2)cc1 (stereo not drawn)	i	-3.15
O=C(COc1ccc2ccccc2c1Br)NCc1ccccn1	i	-0.46
O=C1C2C3C=CC(C2C(=O)N1CCO)C1C(=O)N(CCO)C(=O)C31 (stereo not drawn)	i	0.67
Cn1c(CNC(=O)c2ccccc2F)nnc1SCC(=O)Nc1nncs1	i	0.25
COc1ccccc1CNC(=O)C1CCN(S(C)(=O)=O)CC1	i	1.18
COC(=O)CCCCC1SCC(NC(=O)OC)C1NC(=O)OC (stereo not drawn)	i	-0.04
O=C(c1cc2ccccc2o1)N(Cc1ccco1)Cc1cccs1	-12*	0.07*
O=C(NCc1ccncc1)NC1CCCCC1	i	1.39
NC(N)=NNC(=O)c1ccccc1Cl	i	0.15
N#CC1(NC(=O)COC(=O)CCCN=C2NS(=O)(=O)c3ccccc32)CCCCC1	i	-0.79
CCc1ccc(-c2nc(CN3CCCC(C(=O)NCCc4ccc(OC)c(OC)c4)C3)c(C)o2)cc1 (stereo not drawn)	i	2.06
CN(C)c1ccc(C(=O)n2nnc3ccccc32)cc1	i	2.04
Clc1ccc(CSc2ncn(-c3ccccc3)n2)cc1	i	0.65
COc1ccc(-n2cc(CNCc3cnc4ccccn34)c(-c3cccc(F)c3)n2)cc1	i	0.98
Cc1ccc(NC(=O)/C(=C\c2cccnc2)NC(=O)c2ccco2)cc1	i	-0.04
CCCCc1cn([C@@H](CCCCNC(=O)OC(C)(C)C)C(=O)N2CCN(C(=O)OC(C)(C)C)CC2)nn1	i	-0.55
COC(=O)CCC(=O)Nc1ccc(C)cc1OC(=O)CCC(=O)OC	i	0.38
O=C(COC(=O)c1cnc(Cl)c(Cl)c1)NCc1ccco1	i	-0.89

Some of the entries so far, with values ahead of the structure:
| KCNQ2 block | KCNQ2 block baseline | Structure |
| --- | --- | --- |
| i | -0.77 | O=C(Cc1ccccc1)Nc1ccc(NC(=O)c2ccccc2)c(Cl)c1 |
| i | -0.56 | CC(OC(=O)c1cccc(S(=O)(=O)N2CCCCC2)c1)C(=O)NC1CCCCC1C (stereo not drawn) |
| i | -1.23 | CC1=C(C(=O)Nc2ccccc2)C(c2ccccc2)N2C(=O)CSC2=N1 (stereo not drawn) |
| i | 1 | COc1cc(C=C2C(=O)c3ccccc3C2=O)ccc1O |

The list continues.
SMILES	KCNQ2 block	KCNQ2 block baseline
CCCN(C(=O)COC(=O)c1cc(CC)c(C)s1)c1c(N)n(Cc2ccccc2)c(=O)[nH]c1=O	i	0.02
CCN1CCN(C2=C(NS(=O)(=O)c3ccc(NC(C)=O)cc3)C(=O)c3ccccc3C2=O)CC1	i	-1.52
O=C1CC(c2ccccc2)n2nc(NS(=O)(=O)c3ccccc3)nc2N1 (stereo not drawn)	i	-0.03
COCCn1c(N)c(Sc2ccccc2)c(=O)[nH]c1=O	i	0.14
COc1ccc(N2CCN(C(=O)c3ccc(Cn4nc(C)c([N+](=O)[O-])c4C)o3)CC2)cc1	i	1.03
CC(=O)Nc1ccc(C(=O)Nc2nc(-c3cc(C)n(Cc4ccccc4)c3C)cs2)cc1	i	0.31
CC(C(=O)OCC(=O)c1ccc(F)cc1)N1C(=O)C2C3C=CC(C3)C2C1=O (stereo not drawn)	i	-1.05
CCN(CC)S(=O)(=O)c1cccc(-n2c(O)c(C=Nc3ccccc3C(=O)O)c3ccccc3c2=O)c1	i	2.48
O=C(Nc1ccc2c(c1)OCCO2)c1cnc2ccccn2c1=O	i	0.2
O=C(O)CC1(CC(=O)Nc2cccc(C(=O)O)c2)CCCC1	i	0.76
CCCn1c(=O)c2c(C(F)(F)F)cc(-c3ccco3)nc2n(CCC)c1=O	i	2.54
COC(=O)c1ccc(NC(=O)c2ccc(NC(=O)C3CCCO3)cc2)cc1 (stereo not drawn)	i	0.3
COC(=O)CCSc1nccn1Cc1ccccc1	i	0.66
COc1ccc(-c2noc(-c3ccccc3Cl)n2)cc1OC	i	0.1
Cc1ccc(Cn2cccc(NC(=O)CCC3CCCC3)c2=O)cc1	i	1.11
COc1ccccc1Nc1nc(N2CCCC2)nc(N2CCOCC2)n1	i	-0.18
CC(C)(C)C(=O)Nc1ccc(N2CCN(S(C)(=O)=O)CC2)cc1	i	-1.43
O=C(Cn1c(-c2ccc(Cl)cc2)noc1=O)N1CCN(c2ccccc2F)CC1	i	0.91
COc1cc(/C=N/OCC(=O)Nc2cc(C)on2)ccc1OCc1ccccc1	i	-0.04
CCC(C)(C)NC(=O)C(c1cccn1C)N(C(=O)Cn1nnc2ccccc21)c1ccc(F)cc1 (stereo not drawn)	i	0.07
O=C(O)CCCC(=O)NCCCCc1ccccc1	i	1.49
Cc1cccc(NC(=S)NCc2ccncc2)c1C	i	0.01
O=C1c2ccccc2NC(c2ccccc2Br)N1CCCN1CCOCC1 (stereo not drawn)	i	1.08
CCOC(=O)CNC(=O)c1cnn2cccnc12	i	0.14
Cc1cc(OCC(=O)NCc2nc(-c3ccccc3)no2)c(C)cc1Br	i	-0.91
CC[C@H](C)[C@H](NC(N)=O)C(=O)Nc1ccccc1F	i	0.01
COc1cc(/C=N/n2c(COc3ccccc3)n[nH]c2=S)cc(OC)c1OC(C)=O	i	0.8
CN(C(=O)c1ccc2c(=O)n3c(nc2c1)CCCCC3)c1ccccc1	i	-1.28
COc1ccc2c(COC(=O)CNC(=O)C34CC5CC(CC(C5)C3)C4)cc(=O)oc2c1	i	0.28
CC(C)OCCCN1C(=O)c2ccccc2C1C(=O)NC1CCCCC1 (stereo not drawn)	i	-0.95
CCOC(=O)c1c(-c2ccsc2)csc1N	i	-0.52
COc1ccc(NC(=O)C(C)SCc2ccccc2)cc1 (stereo not drawn)	i	1.72
Cc1cc(OCC(=O)N(C)C2CCCCC2)cc(C)c1Cl	-7.43*	-0.05*
Cn1c(CN2CCCC2)nc2cc(NC(=O)COc3ccc(Cl)cc3)ccc21	i	-0.39
CCN1C(=O)C(=O)N(CC(=O)Nc2ccccc2Oc2ccccc2)C1=O	i	1.06
CNC(=S)NNC(=O)c1cccn(Cc2cccc(C(F)(F)F)c2)c1=O	i	-1.93
COc1cc(O)c(C(CCN2CCN(c3ccccc3)CC2)c2ccc3c(c2)OCO3)c(OC)c1 (stereo not drawn)	i	1.12
O=C(Nc1nnc(SCCN2CCOCC2)s1)C1CC(=O)N(c2ccc(F)cc2)C1 (stereo not drawn)	i	-1.98
O=C(Nc1ccc(Cl)cn1)C1COc2ccccc2O1 (stereo not drawn)	i	3.25
O=C(O)c1cccc(N2C(=O)CSC2c2c(F)cccc2Cl)c1 (stereo not drawn)	i	0.08
CN(C)C(=S)Nc1ccc2c(c1)OCO2	i	1.18
COc1ccccc1/C=N/NC(=O)c1ccc(Br)cc1	i	0.77
COc1ccc(C2(CNC(=O)Cc3ccccc3)CCCC2)cc1OC	i	-1.72
Cc1ccc2oc(=O)n(CC(=O)O)c2c1	i	0.05
Cc1nnc(N/N=C/c2ccco2)n1N	i	0.85
COc1ccccc1NC(=O)CCN1CCN(c2ccc(Cl)cc2)CC1	i	-1.11
Fc1ccc(CSc2nsc(SCc3ccc(F)cc3)n2)cc1	i	0.89
CC(C)c1onc(C(=O)N(C)C2CCCCC2)c1[N+](=O)[O-]	i	-2.04
C=CCSc1nnc(-c2ccccc2N=Cc2c(C)[nH]n(-c3ccccc3)c2=O)c(=O)[nH]1	i	-0.19
CCn1nccc1C(=O)Nc1ccc(C)c(C)c1	i	0.19
Cc1cccc(NC(=O)CSCC(=O)NNC(=O)c2ccoc2C)c1	i	1.49
CCSc1nc2nc(C)cc(C)n2n1	i	-0.33
